Source: PubChem (Southern Research Institute)
Mtb growth – Mycobacterium tuberculosis H37Rv growth inhibition, cell based, confirmatory dose response (AID 1949); M. tuberculosis H37Rv growth inhibition; most inactive calls were filed without a number and no value below 0 was filed; inhibition, % at 10 µg/mL; hits with a dose series show IC50 in µg/mL; 100,000 compounds, 1.6% hits;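 active = confirmed in a dose series; inconclusive = about 50% or more but not retested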;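 also: bacteria grown 7 days with compound before Alamar blue readout; 0% = untreated bacteria and 100% = reference antibiotic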
* = called active by the depositor; i = inactive; u = inconclusive.

SMILES | Mtb growth
CC1CN(C(=O)C(C)Oc2ccc(Cl)cc2Cl)CC(C)O1 (stereo not given) | i
CC(C)C12CN3CC(C(C)C)(CN(C1)C3C(O)C(O)C(O)CO)C2=O (stereo not given) | i
CC1CCCCC1NC(=O)CSc1nnc(N)s1 (stereo not given) | i
CCn1cc(CNC(=S)Nc2cc(OC)ccc2OC)cn1 | 1.0%
CCCC(=O)N1CC2(C)CN(C(=O)CCC)CC(C)(C1)C2 | i
CC(C)CCSc1nc2c(c(=O)[nH]1)C(c1ccncc1)C1=C(CCCC1=O)N2 (stereo not given) | i
Cc1ccc(NC(=S)N2CCN(c3ncccn3)CC2)cc1C | i
COc1ccc(CNC(=O)c2nn3c(c2Cl)NC(c2cccs2)CC3C(F)(F)F)cc1 (stereo not given) | 7.6%
CC(C)c1cccc(C(C)C)c1NC(=O)COc1ccc(C(=O)NC2CCCCC2)cc1 | i
CCOc1ccccc1NC(=O)Cn1cnc2sc3c(c2c1=O)CCC(C)C3 (stereo not given) | i
COCC(C)NCc1cccc2ccccc12 (stereo not given) | 11.2%
CCOC(=O)c1c(NC(=O)C#Cc2ccccc2)sc(C)c1C | i
c1cncc(CN2CCC(N3CCCC3)CC2)c1 | i
CC(=O)Oc1ccc(C(=O)CC2C3=C(CC(C)(C)CC3=O)Oc3ccccc32)cc1 (stereo not given) | i
COc1cc(CNC2CCCC2)cc(I)c1OCC(N)=O | i
O=C(O)c1ccccc1NC(=S)NC(=O)c1cccc2ccccc12 | i
CCc1ccc(N(CC(=O)Nc2cccc(SC)c2)S(=O)(=O)c2ccccc2)cc1 | 0.7%
COc1cccc(CN2CCN(C3CC4CCC3C4)CC2)c1OC (stereo not given) | 3.2%
CCN(CC)Cc1c(CC(C)C)oc(C)c1C(=O)O | i
Fc1ccc(-c2cc(-c3ccccc3)nc(-n3cccn3)n2)cc1 | 15.5%
Cc1cccc(OCC(=O)Nc2ccc(C)c([N+](=O)[O-])c2)c1 | i
O=C(Oc1ccc(Br)cc1C(=S)N1CCOCC1)c1ccc(Cl)cc1Cl | 3.5%
Cc1ccccc1Cn1c(CCCO)nc2ccccc21 | 3.3%
COc1ccccc1N1CCN(CCCOc2cccc3ccccc23)CC1 | 2.0%
O=C(Nc1ccccn1)C1OCCc2ccccc21 (stereo not given) | i
NS(=O)(=O)c1ccc(NC(=O)c2cc(-c3ccc(Br)cc3)nc3ccccc23)cc1 | i
CC1CCc2c(sc(NC(=O)c3ccccc3I)c2C#N)C1 (stereo not given) | i
Cc1cc(NC(=O)CCC(=O)Nc2cc(C)on2)no1 | 0.5%
Cc1ccc(C)c(OCC(=O)Nc2ccc(Cl)cc2)c1C | 5.9%
COc1ccccc1/C=C/c1nc2ccc(OC(C)=O)cc2c(=O)o1 | u
O=C(CSc1ccc2ccccc2c1)N1CCOCC1 | i
O=C(Nc1ccc(-c2nc3ccccc3[nH]2)cc1)c1ccc(Cl)cc1Cl | i
Cc1ccc(Cl)cc1NC(=O)CSc1nc2ccccc2c(=O)n1-c1ccccc1 | i
Cc1ccc(S(=O)(=O)CC(=O)c2cccc(Br)c2)cc1 | 4.0%
Cc1cc(OCC(=O)c2ccc(N3CCCC3)cc2)c2c3c(c(=O)oc2c1)CCCC3 | i
Cc1ccc(S(=O)(=O)N2CCCCC2C)cc1C (stereo not given) | i
Cc1cc(C)c(NC(=O)CCCN2CCOCC2)c(C)c1 | i
CCC(=O)N1N=C(c2ccccc2)CC1c1cccc(F)c1 (stereo not given) | i
N#Cc1cccc(NC(=O)COc2ccc([N+](=O)[O-])cc2)c1 | i
CN1CCN(C(=O)NCC23CC4CC(CC(C4)C2)C3)CC1 | i
COc1cc(SC)ccc1C(=O)NCCOc1ccc(Cl)cc1 | i
Cc1cc(C(=O)Nc2cccnc2)no1 | i
CNc1nc(SC)nc(N2CCOCC2)n1 | i
Cc1cccc(OCC(O)CNC(C)(C)CO)c1C (stereo not given) | i
O=C(O)c1cccc(NC(=O)c2cccc(NC(=O)c3cccc(Cl)c3)c2)c1 | i
CSc1ccc(S(=O)(=O)Nc2ccc(N3CCOCC3)c(Cl)c2)cc1 | i
CC1CC(CCC(=O)Nc2ccc(S(N)(=O)=O)cc2)C(=O)O1 (stereo not given) | i
O=C1c2ccccc2C2=Nc3cc(Cl)ccc3OC12O (stereo not given) | 5.5µg/mL*
COc1cc(CNCC2CCCO2)ccc1OCc1ccccc1Cl (stereo not given) | i
Cc1ccc(Cn2ccc(NC(=O)c3nc4ncccn4n3)n2)cc1 | i
CN1CCc2nc(SCc3ccc(F)cc3)c(C#N)c(-c3cccs3)c2C1 | 1.2%
COC(=O)c1c(NC(=S)NCc2ccco2)sc2c1CCC(C)C2 (stereo not given) | i
CCOC(=O)c1c(NC(=O)CCn2cnc3ccccc3c2=O)sc(C)c1C | i
CCOC(=O)c1ccc(N2C(=O)CC(Cc3ccc(C)cc3)C2=O)cc1 (stereo not given) | i
Cc1cc(C)c(C2C(C#N)=C(N)Oc3n[nH]c(C)c32)cc1CN1CCCC1 (stereo not given) | 1.2%
CCCOc1ccc(C(=O)NCc2ccco2)cc1OC | i
CCOC(=O)CSc1nnc2c(n1)[nH]c1ccccc12 | i
C=CCc1cc(OC)ccc1OCCN1CCCC(C)C1 (stereo not given) | i
CCOc1ccc(C(=S)N2CCN(CC)CC2)cc1 | 1.9%
O=C(Nn1cnnc1)c1cccc(C(F)(F)F)c1 | i

Next compounds follow:
SMILES | Mtb growth
Cc1onc(-c2ccccc2Cl)c1C(=O)Nc1nnc(CC(C)C)s1 | i
COc1cc(C2C3=C(CCCC3=O)NC3=C2C(=O)CCC3)ccc1OCC#N | i
Cn1cnnc1SCC(=O)Nc1ccccn1 | i
Cc1ccccc1-n1nnnc1SCCC(=O)O | i
CCCNC(=O)N1CC=C(c2ccccc2)CC1 | i
COc1ccc(Cn2c(=O)oc3ccccc32)cc1 | i
CC1CCN(S(=O)(=O)c2ccc(NS(C)(=O)=O)cc2)CC1 | 2.1%
Cc1ccc(S(=O)(=O)NCC(=O)OCc2ccc(C(=O)c3ccccc3)cc2)cc1 | i
COc1c(C)cccc1C(=O)Nc1nc2ccc(Cl)cc2s1 | 2.4%
CS(=O)(=O)N(CC(=O)Nc1ccc(Br)cc1)c1ccc(Cl)cc1Cl | i
O=C(Nc1cc(Cl)c(Cl)cc1Cl)c1cccc(Cl)c1 | i
NC(=NCCc1ccccc1)Nc1nc2ccccc2[nH]1 | i
CCOc1ccc(-n2c(Cc3ccccc3)nnc2SCC(=O)N2C(C)CCCC2C)cc1 (stereo not given) | i
CCCC1=C(C(=O)OCC)C(c2cc(OC)c(O)cc2Cl)NC(=S)N1 (stereo not given) | i
COc1cc(C)nc(NC(=S)NC(=O)c2c(Cl)ccc(Cl)c2OC)n1 | 4.6%
O=c1[nH]c(SCc2nc3c(Cl)cc(Cl)cc3c(=O)n2-c2ccccc2F)nc2ccccc12 | u
O=C(CC12CC3CC(CC(C3)C1)C2)N1CCN(c2ccc([N+](=O)[O-])c(NC3CC3)c2)CC1 | i
O=C1c2c(-c3ccc(Cl)cc3)csc2NC2CCCN12 (stereo not given) | i
CCOc1cccc(/C=C(/C#N)c2nc3ccccc3[nH]2)c1 | i
COc1ccc(Cl)cc1-c1nc(-c2ccc([N+](=O)[O-])cc2)no1 | i
COCCNC(=S)N1CCN(Cc2cccc(OC)c2)CC1 | 3.1%
CN1CCC(NC(=O)C2CCCO2)CC1 (stereo not given) | i
Cc1cc(N)c(-n2cc3c(c2-c2ccccc2)c(=O)n(C)c(=O)n3C)cc1C | i
CC(NC(=O)C1CCC1)c1ccc(Cl)cc1 (stereo not given) | i
O=C(NC(=S)Nc1ccc(Cl)c(C(=O)O)c1)c1cc2ccccc2o1 | i
O=[N+]([O-])c1cc(C(F)(F)F)ccc1NCCNS(=O)(=O)c1ccc(Cl)c(Cl)c1 | i
COc1cc(SC)ccc1C(=O)Nc1cc(C(F)(F)F)ccc1Cl | i
COC(=O)c1ccc(N2C(=O)CC(N(CCc3ccccc3)C(=S)Nc3ccccc3)C2=O)cc1 (stereo not given) | 2.77µg/mL*
O=S(=O)(Nc1nc2ccccc2s1)c1ccc(Cl)s1 | i
CC(=O)Nc1ccc(C(=O)OCc2ccc(Cl)cc2)cc1 | i
O=C(Cn1cnc2scc(-c3ccc(F)cc3)c2c1=O)NCc1ccccc1 | i
COc1cc2c(cc1/C=C(/C#N)c1ccc([N+](=O)[O-])cc1)OCO2 | i
COc1cc(OC)c(C2C(C(=O)N3CCOCC3)=C(C)NC3=C2C(=O)CC(C)(C)C3)cc1OC (stereo not given) | i
Cc1ccc(S(=O)(=O)N2CCC(C)CC2)c([N+](=O)[O-])c1 | 3.4%
O=C(Nc1cccc(Cl)c1)Nc1ccccc1OC(F)(F)C(F)F | 0.19µg/mL*
Cc1occc1-c1nc(-c2ccc(Cl)cc2)no1 | i
O=C(CSc1nc(-c2ccccc2)cc(=O)[nH]1)N1CCc2ccccc2C1 | i
CCOC(=O)c1c(CNCc2ccccc2)n(C)c2cc(Br)c(O)cc12 | i
CC(C(=O)NCC1CCCO1)N(c1ccc(Oc2ccccc2)cc1)S(C)(=O)=O (stereo not given) | 10.8%
CCS(=O)(=O)N1CCC(N2CCCCC2)CC1 | i

Copied from above, 21 compounds:
SMILES | Mtb growth
O=C(CC12CC3CC(CC(C3)C1)C2)N1CCN(c2ccc([N+](=O)[O-])c(NC3CC3)c2)CC1 | i
O=C1c2c(-c3ccc(Cl)cc3)csc2NC2CCCN12 (stereo not given) | i
CCOc1cccc(/C=C(/C#N)c2nc3ccccc3[nH]2)c1 | i
COc1ccc(Cl)cc1-c1nc(-c2ccc([N+](=O)[O-])cc2)no1 | i
COCCNC(=S)N1CCN(Cc2cccc(OC)c2)CC1 | 3.1%
CN1CCC(NC(=O)C2CCCO2)CC1 (stereo not given) | i
Cc1cc(N)c(-n2cc3c(c2-c2ccccc2)c(=O)n(C)c(=O)n3C)cc1C | i
CC(NC(=O)C1CCC1)c1ccc(Cl)cc1 (stereo not given) | i
O=C(NC(=S)Nc1ccc(Cl)c(C(=O)O)c1)c1cc2ccccc2o1 | i
O=[N+]([O-])c1cc(C(F)(F)F)ccc1NCCNS(=O)(=O)c1ccc(Cl)c(Cl)c1 | i
COc1cc(SC)ccc1C(=O)Nc1cc(C(F)(F)F)ccc1Cl | i
COC(=O)c1ccc(N2C(=O)CC(N(CCc3ccccc3)C(=S)Nc3ccccc3)C2=O)cc1 (stereo not given) | 2.77µg/mL*
O=S(=O)(Nc1nc2ccccc2s1)c1ccc(Cl)s1 | i
CC(=O)Nc1ccc(C(=O)OCc2ccc(Cl)cc2)cc1 | i
O=C(Cn1cnc2scc(-c3ccc(F)cc3)c2c1=O)NCc1ccccc1 | i
COc1cc2c(cc1/C=C(/C#N)c1ccc([N+](=O)[O-])cc1)OCO2 | i
COc1cc(OC)c(C2C(C(=O)N3CCOCC3)=C(C)NC3=C2C(=O)CC(C)(C)C3)cc1OC (stereo not given) | i
Cc1ccc(S(=O)(=O)N2CCC(C)CC2)c([N+](=O)[O-])c1 | 3.4%
O=C(Nc1cccc(Cl)c1)Nc1ccccc1OC(F)(F)C(F)F | 0.19µg/mL*
Cc1occc1-c1nc(-c2ccc(Cl)cc2)no1 | i
O=C(CSc1nc(-c2ccccc2)cc(=O)[nH]1)N1CCc2ccccc2C1 | i

More compounds follow:
SMILES | Mtb growth
Cc1cccc(OCc2nc3c4c5c(sc4ncn3n2)CCCCC5)c1C | i
COc1ccc(S(=O)(=O)N(CC(=O)Nc2ccccc2Br)c2ccccc2)cc1OC | i
COc1ccc(NCc2n[nH]nc2-c2ccccc2)cc1Cl | 3.2%
Fc1ccccc1CN1CCN(Cc2c[nH]c3ccccc23)CC1 | i
O=C(O)c1ccc(Sc2nnnn2-c2ccccc2)c([N+](=O)[O-])c1 | i
COc1ccc(CNCC(CO)C2(Cc3ccccc3)CCOC(C)(C)C2)cc1 (stereo not given) | i
CCc1ccccc1NC(=O)COc1ccc2ccccc2c1Br | 4.9%
CCC(C)NCCCOc1c(Cl)cc(Cl)cc1Cl (stereo not given) | 3.2%
O=C1c2ccccc2C(=O)C1c1cccc2ccccc12 | u
CC1=CC(C)C(COC(=O)CN2CCCC2)C(C)C1 (stereo not given) | 1.1%
CCOc1ccc(C2CC(c3ccc(Cl)cc3Cl)Nc3nc(N)nn32)cc1 (stereo not given) | 10.2%
COc1ccc(OC)c(NC(=O)c2cc(-c3cccs3)nc3ccccc23)c1 | i
O=C(NC(=S)Nc1cccnc1)c1ccc2c(c1)OCO2 | i
COc1ccc(NC(=O)C2(C)CC2(Cl)Cl)cc1OC (stereo not given) | i
C=CCOc1c(Cl)cc(C(=S)N2CCCC2)cc1OCC | i
CCc1ccc(C2C(C#N)=C(N)N(N(C)C)C3=C2C(=O)CC(C)(C)C3)s1 (stereo not given) | 4.3%
CC(C)CNS(=O)(=O)c1ccc2nc(N)sc2c1 | i
O=C(O)c1cccc(CSc2n[nH]c(Cc3ccccc3)n2)c1 | i
COc1ccccc1OCCNC(=O)c1ccc(Oc2ccccc2)cc1 | 1.6%
COC(=O)COc1ccc(S(=O)(=O)NCCc2ccccc2)cc1C | i
N#Cc1ccc(NCC2CCCO2)c([N+](=O)[O-])c1 (stereo not given) | i
NC(=O)C1CCN(C(=S)c2cccs2)CC1 | i
O=C(O)Cn1cc(C(=O)c2cccs2)c2ccccc21 | i
CC1CCN(c2ncnc3c2cnn3-c2ccc(Cl)cc2)CC1 | 4.0%
CCC1(C(=O)c2ccccc2)C2c3cc(Br)ccc3OC(=O)C21C(=O)c1ccco1 (stereo not given) | 12.9%
COc1ccc(-c2noc(-c3ccccc3I)n2)cc1 | 2.5%
CCOC(=O)C1CCN(C(=O)Cc2c(OC)ccc3cc(Br)ccc23)CC1 | i
COC(=O)c1c(NC(=S)Nc2cccc(S(=O)(=O)N3CCOCC3)c2)sc2c1CCC2 | i
CCOc1ccccc1N1CCN(C(=O)C2CCN(Cc3cc(OC)ccc3OC)CC2)CC1 | i
CCOC(=O)Cc1nnc(NC(=O)C(CC)Sc2nnc3c4ccccc4n(C)c3n2)s1 (stereo not given) | i
Cc1ccc(C(=O)O/N=C(\N)c2ccccc2)cc1Cl | i
CCOc1ccc(NC(=O)CCC(C(=O)O)C(C)C)cc1 (stereo not given) | i
Cn1c(SCC(=O)NC2CCCCC2)nnc1-c1cccc(N)c1 | i
NC(=O)c1c(NC(=O)C(c2ccccc2)c2ccccc2)sc2c1CCCCC2 | i

The list is partial; rates above refer to the full screens.
